Env fusion inh – inhibitors of HIV Env-mediated cell fusion. AID 651610. HeLa-JRFL Env/CEM21 cell fusion, luciferase. 360,000 tested, 1.1% active. inhibition, % at 12.3 µM;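 active means mean replicate inhibition score of at least 50 and every replicate individually at or above 50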;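 further: 0% = plate neutral controls and 100% = maraviroc near 300 nM; one replicate is shown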
Yeast UUG start – modulators of start codon recognition fidelity in yeast. 350,000 tested, 0.13% active. S. cerevisiae UUG-firefly luciferase reporter, luminescence/redox ratio. activity score, % at 18.7 µM;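 active means replicate mean at a twofold rise or more, about +100% in these data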;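 further: firefly luciferase made from a UUG start codon reports start codon fidelity; reporter light over untreated wells divided by growth signal over untreated wells; some hits fall short of that in this replicate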
An asterisk follows results filed as active; [ ] = another dose, or the depositor's remark. Only part of the results is shown (hit frequency here may not be typical).

SMILES | Env fusion inh | Yeast UUG start
COc1ccc(-c2cnc3c(c2)C(=O)N([C@@H](C)CO)C[C@H](C)[C@@H](CN(C)C(=O)C2CC2)O3)cc1 | -36[16.7 µM] | 18
Cc1noc(C)c1NC(=O)Nc1ccc2c(c1)CC(=O)N([C@@H](C)CO)C[C@@H](C)[C@H](CN(C)S(=O)(=O)c1ccc(Cl)cc1)O2 | -16[16.7 µM] | 10
C[C@@H]1CCCCO[C@H](CN(C)Cc2ccc(C(F)(F)F)cc2)[C@H](C)CN([C@@H](C)CO)C(=O)c2cc(NC(=O)C3CCCCC3)ccc2O1 | 16[16.7 µM] | 10
C[C@@H]1CN([C@H](C)CO)C(=O)Cc2cc(NC(=O)CCN3CCOCC3)ccc2O[C@H]1CN(C)C(=O)Nc1ccc(F)cc1 | -18[16.7 µM] | -12
C[C@@H]1CN([C@@H](C)CO)C(=O)c2cc(NC(=O)NC3CCCCC3)ccc2O[C@@H](C)CCCCO[C@@H]1CN(C)S(=O)(=O)c1cn(C)cn1 | -24[16.7 µM] | 32
COc1ccc(CN(C)C[C@H]2OCCCC[C@@H](C)Oc3ccc(NC(=O)Nc4ccc(F)cc4)cc3C(=O)N([C@H](C)CO)C[C@@H]2C)cc1 | -1[16.7 µM] | -4
COCCNC(=O)C[C@@H]1CC[C@H]2[C@@H](COc3ccc(NC(=O)COC)cc3C(=O)N2C)O1 | -16[16.7 µM] | -1
C[C@@H]1CN([C@H](C)CO)C(=O)c2cc(NC(=O)Nc3ccc(F)cc3)ccc2O[C@@H]1CN(C)Cc1ccc(Cl)c(Cl)c1 | 26[16.7 µM] | 0
C[C@H]1CN([C@@H](C)CO)S(=O)(=O)c2ccc(-c3ccccc3)cc2O[C@H]1CN(C)Cc1ccccn1 | -3[16.7 µM] | -18
CC(C)NC(=O)NCC[C@H]1CC[C@@H](NC(=O)Nc2ccccc2)[C@H](CO)O1 | 8[16.7 µM] | 1
C[C@H]1CN([C@@H](C)CO)C(=O)Cc2cc(NC(=O)Cc3ccccc3)ccc2O[C@@H]1CN(C)S(=O)(=O)c1ccccc1 | 9[16.7 µM] | 9
C[C@@H]1CN([C@@H](C)CO)C(=O)c2cccc(NC(=O)c3cnccn3)c2O[C@H]1CN(C)S(=O)(=O)c1ccc(Cl)cc1 | -35[16.7 µM] | 6
CC(C)NC(=O)N(C)C[C@@H]1Oc2ccc(NC(=O)CCCCCC(=O)Nc3ccccc3N)cc2C(=O)N([C@@H](C)CO)C[C@@H]1C | -14[16.7 µM] | -2
CC(C)NC(=O)N(C)C[C@H]1Oc2ccc(NC(=O)Nc3ccc4c(c3)OCO4)cc2CC(=O)N([C@@H](C)CO)C[C@@H]1C | -39[16.7 µM] | 16
O=C(C[C@H]1CC[C@H]2[C@@H](COC[C@@H](O)CN2CCC(F)(F)F)O1)N1CCC(Cc2ccccc2)CC1 | 14[16.7 µM] | 2
C[C@@H]1CN([C@@H](C)CO)S(=O)(=O)c2ccc(C#CCN(C)C)cc2O[C@H]1CN(C)Cc1ccc2c(c1)OCO2 | -57[16.7 µM] | 14
C[C@@H]1CN([C@@H](C)CO)C(=O)c2cc(NC(=O)Nc3ccccc3)ccc2O[C@@H](C)CCCCO[C@@H]1CN(C)C(=O)Nc1ccc2c(c1)OCO2 | 17[16.7 µM] | 0
COc1ccc(S(=O)(=O)N(C)C[C@H]2OCCCC[C@H](C)Oc3ccc(NC(=O)CCCN(C)C)cc3C(=O)N([C@@H](C)CO)C[C@H]2C)cc1 | -6[16.7 µM] | 23
COc1ccc(NC(=O)N(C)C[C@@H]2Oc3ccc(NC(=O)Nc4ccc(F)cc4)cc3CC(=O)N([C@H](C)CO)C[C@@H]2C)cc1 | 5[16.7 µM] | 6
C[C@@H]1CN([C@@H](C)CO)C(=O)c2cc(NC(=O)Nc3ccc4c(c3)OCO4)ccc2O[C@@H](C)CCCCO[C@H]1CN(C)Cc1ccc2c(c1)OCO2 | 24[16.7 µM] | 15
O=C(C[C@H]1C[C@H]2c3cc(NC(=O)C4CCC4)ccc3O[C@H]2[C@H](CO)O1)NCc1ccncc1 | 18[16.7 µM] | -11
C[C@H](O)C#Cc1ccc2c(c1)O[C@H](CN(C)C(=O)CN(C)C)[C@H](C)CN([C@@H](C)CO)S2(=O)=O | -16[16.7 µM] | 2
O=C(C[C@H]1C=C[C@H](NC(=O)C2CCC2)[C@@H](CO)O1)NC1CCC1 | 20[16.7 µM] | -3
CC(C)NC(=O)Nc1ccc2c(c1)C(=O)N([C@@H](C)CO)C[C@@H](C)[C@H](CN(C)Cc1ccc(C(=O)O)cc1)OCCCC[C@@H](C)O2 | 4[16.7 µM] | 6
C[C@H](O)C#Cc1cnc2c(c1)C(=O)N([C@H](C)CO)C[C@@H](C)[C@@H](CN(C)C(=O)c1ccncc1)O2 | -5[16.7 µM] | -19

Structures listed so far that have a Cl atom, in the order listed:
SMILES | Env fusion inh | Yeast UUG start
Cc1noc(C)c1NC(=O)Nc1ccc2c(c1)CC(=O)N([C@@H](C)CO)C[C@@H](C)[C@H](CN(C)S(=O)(=O)c1ccc(Cl)cc1)O2 | -16[16.7 µM] | 10
C[C@@H]1CN([C@H](C)CO)C(=O)c2cc(NC(=O)Nc3ccc(F)cc3)ccc2O[C@@H]1CN(C)Cc1ccc(Cl)c(Cl)c1 | 26[16.7 µM] | 0
C[C@@H]1CN([C@@H](C)CO)C(=O)c2cccc(NC(=O)c3cnccn3)c2O[C@H]1CN(C)S(=O)(=O)c1ccc(Cl)cc1 | -35[16.7 µM] | 6

Next entries.
SMILES | Env fusion inh | Yeast UUG start
C[C@@H]1CN([C@H](C)CO)C(=O)c2cc(-c3ccc(C#N)cc3)cnc2O[C@H]1CN(C)CC1CCCC1 | -18[16.7 µM] | -3
CCCC(=O)Nc1ccc2c(c1)OC[C@@H](C)N(CC1CCCC1)C[C@H](C)[C@H](OC)CN(C)C2=O | -4[16.7 µM] | -7
C[C@@H]1CN([C@H](C)CO)C(=O)c2cc(NC(=O)Nc3ccc(C(F)(F)F)cc3)ccc2O[C@@H](C)CCCCO[C@H]1CN(C)Cc1ccc(C(=O)O)cc1 | 11[16.7 µM] | 11
CCCNC(=O)C[C@H]1CC[C@H]2[C@@H](COc3ccc(NC(=O)c4ccc(OC)cc4)cc3C(=O)N2C)O1 | -15[16.7 µM] | 3
O=C(C[C@@H]1C=C[C@H](NC(=O)c2ccc3c(c2)OCO3)[C@H](CO)O1)NCc1ccc(Cl)cc1 | 12[16.7 µM] | -12
C[C@H]1CN([C@@H](C)CO)C(=O)c2cc(C#CC3CCCCC3)cnc2O[C@@H]1CN(C)S(=O)(=O)c1ccccc1 | 23[16.7 µM] | -4
C[C@@H]1CN([C@H](C)CO)C(=O)c2cc(NS(=O)(=O)c3ccc(F)cc3)ccc2O[C@H]1CN(C)S(=O)(=O)c1ccc(F)cc1 | -15[16.7 µM] | 7
COCC#Cc1cnc2c(c1)C(=O)N([C@@H](C)CO)C[C@@H](C)[C@H](CN(C)C(=O)C1CC1)O2 | -16[16.7 µM] | 12
CC(C)C(=O)Nc1ccc2c(c1)C(=O)N(C)[C@H]1CC[C@@H](CC(=O)NCCc3ccccc3)O[C@@H]1CO2 | -2[16.7 µM] | -2
C[C@@H]1CN([C@H](C)CO)C(=O)c2cccc(NC(=O)C3CC3)c2O[C@@H]1CN(C)CC1CCCCC1 | -7[16.7 µM] | -10
C[C@H]1CN([C@@H](C)CO)S(=O)(=O)c2ccc(-c3cccc(C#N)c3)cc2O[C@H]1CN(C)C(=O)c1ccc(F)cc1 | -3[16.7 µM] | 7
COCC(=O)N(C)C[C@H]1Oc2cc(-c3ccccc3)ccc2S(=O)(=O)N([C@@H](C)CO)C[C@@H]1C | -4[16.7 µM] | 1
C[C@H](CO)N1C[C@H](C)[C@@H](CN(C)S(=O)(=O)c2cn(C)cn2)Oc2ccc(NS(=O)(=O)c3ccccc3)cc2CC1=O | -3[16.7 µM] | 21
COc1ccc(S(=O)(=O)N(C)C[C@@H]2Oc3c(NC(=O)Nc4ccc(C(F)(F)F)cc4)cccc3C(=O)N([C@@H](C)CO)C[C@H]2C)cc1 | -47[16.7 µM] | -2
COc1cccc(-c2cn(CC[C@@H]3CC[C@H](NC(C)=O)[C@@H](CO)O3)nn2)c1 | -5[16.7 µM] | 12
COCCOC(=O)N1C(=O)[C@@]2(c3cc(C#CCC(C(=O)OC)C(=O)OC)ccc31)[C@H](C(=O)N1CCc3cc(OC)c(OC)cc3C1)[C@H]1C(=O)O[C@H](c3ccccc3)[C@H](c3ccccc3)N1[C@@H]2c1ccc(O)cc1 | 20[16.7 µM] | -10
C[C@H](CO)N1C[C@H](C)[C@H](CN(C)Cc2ccccc2)Oc2ccc(NC(=O)Nc3ccccc3)cc2CC1=O | 41[16.7 µM] | -3
CC(=O)Nc1ccc2c(c1)C(=O)N(C)[C@@H]1CC[C@@H](CC(=O)NCC3CCCCC3)O[C@@H]1CO2 | -3[16.7 µM] | 0
C[C@@H]1CCCCO[C@@H](CN(C)S(=O)(=O)c2ccccc2)[C@@H](C)CN([C@H](C)CO)C(=O)c2cc(NC(=O)Nc3ccc(C(F)(F)F)cc3)ccc2O1 | 1[16.7 µM] | 10
COc1ccc(NC(=O)Nc2ccc3c(c2)C(=O)N([C@H](C)CO)C[C@H](C)[C@@H](CN(C)Cc2ccc(Oc4ccccc4)cc2)O3)cc1 | -9[16.7 µM] | 14
Cc1noc(C)c1NC(=O)Nc1cccc2c1O[C@@H](CN(C)Cc1ccc(Oc3ccccc3)cc1)[C@H](C)CN([C@@H](C)CO)C2=O | -1[16.7 µM] | 2
C[C@@H]1CN([C@H](C)CO)C(=O)c2cc(NC(=O)Nc3ccccc3)ccc2O[C@@H]1CN(C)S(=O)(=O)c1ccccc1 | 75*[16.7 µM] | 10
C[C@@H]1CN([C@H](C)CO)C(=O)c2cc(C#CCN(C)C)cnc2O[C@H]1CN(C)C(=O)c1cccnc1 | -19[16.7 µM] | -15
C[C@H]1CN([C@@H](C)CO)C(=O)c2cc(-c3ccccc3)cnc2O[C@H]1CN(C)C | 5[16.7 µM] | -13
C[C@H]1CN([C@@H](C)CO)C(=O)c2cccc(NC(=O)c3ccncc3)c2O[C@H]1CN(C)C(=O)Nc1ccc(C(F)(F)F)cc1 | 8[16.7 µM] | -24

Structural class, the entries above containing a cyano group (2)
SMILES | Env fusion inh | Yeast UUG start
C[C@@H]1CN([C@H](C)CO)C(=O)c2cc(-c3ccc(C#N)cc3)cnc2O[C@H]1CN(C)CC1CCCC1 | -18[16.7 µM] | -3
C[C@H]1CN([C@@H](C)CO)S(=O)(=O)c2ccc(-c3cccc(C#N)c3)cc2O[C@H]1CN(C)C(=O)c1ccc(F)cc1 | -3[16.7 µM] | 7

Continued:
SMILES | Env fusion inh | Yeast UUG start
COc1ccc(CN(C)C[C@@H]2Oc3ccc(NC(=O)Nc4ccc(C(F)(F)F)cc4)cc3CC(=O)N([C@H](C)CO)C[C@H]2C)cc1 | -17[16.7 µM] | 5
COC(=O)C[C@@H]1CC[C@@H]2[C@H](COc3ccc(NC(=O)NC(C)C)cc3C(=O)N2C)O1 | 11[16.7 µM] | -10
C[C@H](CO)N1C[C@H](C)[C@H](CN(C)C(=O)Cc2ccccc2)OCCCC[C@H](C)Oc2ccc(NC(=O)Nc3cccc4ccccc34)cc2C1=O | 2[16.7 µM] | -6
CO[C@@H]1CN(C)C(=O)c2ccc(NC(=O)c3ccc(F)cc3)cc2OC[C@H](C)NC[C@H]1C | -1[16.7 µM] | -9
C[C@@H]1CN([C@H](C)CO)C(=O)c2cc(NC(=O)Nc3ccc(F)cc3)ccc2O[C@@H](C)CCCCO[C@@H]1CN(C)C(=O)NC1CCCCC1 | -11[16.7 µM] | -12
C[C@@H]1CN([C@H](C)CO)C(=O)c2cc(NC(=O)Nc3cccc4ccccc34)ccc2O[C@@H](C)CCCCO[C@H]1CN(C)S(=O)(=O)c1ccc(Cl)cc1 | 7[16.7 µM] | 1
C[C@H](CO)N1C[C@H](C)[C@@H](CN(C)Cc2ccc(C(=O)Nc3ccccc3N)cc2)Oc2ccc(NS(=O)(=O)c3ccc(F)cc3)cc2CC1=O | 10[16.7 µM] | 4
C[C@@H]1CN([C@H](C)CO)S(=O)(=O)c2ccc(-c3ccc(C#N)cc3)cc2O[C@@H]1CN(C)C(=O)Nc1cc(F)ccc1F | -19[16.7 µM] | -13
C[C@@H]1CCCCO[C@@H](CN(C)C(=O)Cc2ccccc2)[C@H](C)CN([C@H](C)CO)C(=O)c2cc(NC(=O)Cc3ccccc3)ccc2O1 | -50[16.7 µM] | 6
C[C@@H]1CCCCO[C@H](CN(C)C(=O)C2CCCCC2)[C@H](C)CN([C@@H](C)CO)C(=O)c2cc(NC(=O)CCCCCC(=O)Nc3ccccc3N)ccc2O1 | -60[16.7 µM] | 6
C[C@@H]1CN([C@H](C)CO)C(=O)c2cc(-c3ccncc3)cnc2O[C@H]1CN(C)C(=O)Cc1ccccn1 | 22[16.7 µM] | -19
C[C@@H]1CCCCO[C@H](CN(C)C(=O)Nc2ccccc2)[C@H](C)CN([C@@H](C)CO)C(=O)c2cc(NC(=O)c3ccncc3)ccc2O1 | 14[16.7 µM] | 3
Cc1noc(C)c1NC(=O)Nc1ccc2c(c1)C(=O)N([C@H](C)CO)C[C@H](C)[C@H](CN(C)S(=O)(=O)c1cn(C)cn1)OCCCC[C@@H](C)O2 | 25[16.7 µM] | -6

Given field by field: part of the list above.
compound: Cc1noc(C)c1NC(=O)Nc1ccc2c(c1)C(=O)N([C@H](C)CO)C[C@H](C)[C@H](CN(C)S(=O)(=O)c1cn(C)cn1)OCCCC[C@@H](C)O2
  Env fusion inh: 25[16.7 µM]
  Yeast UUG start: -6
compound: COC(=O)C[C@@H]1CC[C@@H]2[C@H](COc3ccc(NC(=O)NC(C)C)cc3C(=O)N2C)O1
  Env fusion inh: 11[16.7 µM]
  Yeast UUG start: -10

Screening results deposited in PubChem by Broad Institute.
